# Source: PubChem BioAssay
# Vaccinia mCherry: vaccinia inhibition (mCherry reporter); Potency, µM (doses to about 36.5 µM), without a hit: top-dose activity change, negative = inhibition, most hits filed as inhibitors; AID 720579; Vaccinia virus mCherry reporter infection, fluorescence; about a quarter of the inactives have no number; 310,000 compounds, 0.63% hits; active = well fitted inhibition curve with a large enough effect; inconclusive = small, poorly fitted or top-dose-only effect; inactive = no such curve, though single readings can be large or run the other way; tested in A549 cells; also: nearly all actives have a fitted effect of over 35% in size; inactives centre near -10
# VACV Venus inh: vaccinia inhibition (Venus reporter) | Vaccinia virus Venus reporter expression, fluorescence | Potency, µM (doses to about 36.5 µM), inactives show at the highest dose activity change, negative = inhibition, most hits filed as inhibitors | 330,000 compounds, 0.46% hits | AID 720580; active means well fitted inhibition curve with a large enough effect; inconclusive means small, poorly fitted or top-dose-only effect; inactive means no such curve, though single readings can be large or run the other way; tested in A549 cells; also: nearly all actives have a fitted effect of over 30% in size; inactives centre near -10
# An asterisk follows results filed as active; i = inactive; ? = inconclusive; nt = no result given; & = joins results of further samples; [ ] = dose if it differs, or a comment. % is scaled to controls: 0 for no effect and ±100 for the full control effect; potency is read from the fitted curve at half-maximal effect.
# Sample of the layout (seven entries):
# Results follow in this order: Vaccinia mCherry	VACV Venus inh
O=C(NC1CCCCC1)C(c1ccc(F)cc1)N(C(=O)c1csnn1)C1CC1 (centres undefined)
 : -5%	-8%
COC(=O)c1ccc(NC(=O)C(=O)NCCc2sc(-c3cccc(F)c3)nc2C)cc1
 : -17%	-15%
CCCSc1ccc([C@H]2N[C@@](Cc3ccccc3)(C(=O)OC)[C@H]3C(=O)N(C)C(=O)[C@@H]23)cc1
 : ?	-29%
Cn1ccnc1Sc1nc2c(c(=O)n(C)c(=O)n2C)n1C
 : 4%	9%
Cc1cccc(C)c1OCc1cc(=O)n2ccsc2n1
 : -11%	-11%
COc1ccc(S(=O)(=O)NCCSCc2ccco2)cc1
 : nt	-4%
CCCCCCSc1ccc(-c2nc3ccc(C)cn3c2NC2CCCCC2)cc1
 : -18%	-15%

# Main list (from the top)
# Results follow in this order: Vaccinia mCherry	VACV Venus inh
O=C(NC1CCCCC1)C(c1ccc(F)cc1)N(C(=O)c1csnn1)C1CC1 (centres undefined)
 : -5%	-8%
COC(=O)c1ccc(NC(=O)C(=O)NCCc2sc(-c3cccc(F)c3)nc2C)cc1
 : -17%	-15%
CCCSc1ccc([C@H]2N[C@@](Cc3ccccc3)(C(=O)OC)[C@H]3C(=O)N(C)C(=O)[C@@H]23)cc1
 : ?	-29%
Cn1ccnc1Sc1nc2c(c(=O)n(C)c(=O)n2C)n1C
 : 4%	9%
Cc1cccc(C)c1OCc1cc(=O)n2ccsc2n1
 : -11%	-11%
COc1ccc(S(=O)(=O)NCCSCc2ccco2)cc1
 : nt	-4%
CCCCCCSc1ccc(-c2nc3ccc(C)cn3c2NC2CCCCC2)cc1
 : -18%	-15%
O=C(CSc1nccn1-c1ccc(Cl)cc1)Nc1ccc(Cl)c(Cl)c1
 : -11%	-25%
COc1ccc(NC(=O)Cn2ncc(Cl)c(Cl)c2=O)cc1S(=O)(=O)N1CCOCC1
 : -2%	-15%
COc1cccc(C(C(=O)NC2CCCC2)N(C(=O)c2ccco2)c2ccc(-n3cnnn3)c(C)c2)c1OC (centres undefined)
 : -8%	-3%
O=C(Nc1nnc([C@@H]2C[C@H](O)[C@@H](CO)O2)s1)NC(c1ccccc1)c1ccccc1
 : -3%	-11%
Cn1c(=O)n(C)c2cc(CNCc3ccc(F)cc3)ccc21
 : -20%	-10%
Cc1ccccc1NS(=O)(=O)c1ccc(C(=O)OCC(=O)NCC(C)C)cc1
 : i	-24%
COCCNC(=O)c1ccc(N2CC3CC(C2)c2cccc(=O)n2C3)c(NC(=O)c2ccc(C(C)(C)C)cc2)c1 (centres undefined)
 : -12%	-13%
COC(=O)CCCNc1ncccc1[N+](=O)[O-]
 : -1%	-3%
CCN(C(=O)CN1CCN(c2cccc(C(F)(F)F)c2)CC1)c1c(N)n(Cc2ccccc2)c(=O)[nH]c1=O
 : i	-7%
CCc1nn(CC(=O)NCCCN(CC)CC)c(=O)c2cc3sc(C)cc3n12
 : -8%&1%	-3%&0%
COc1ccccc1Nc1ncnc2ccccc12
 : -12%	-4%
COC(=O)C1=C(c2ccc(OC(F)(F)F)cc2)C[C@@H]2CC[C@H]1N2C(=O)NCCOc1ccccc1Cl
 : -19%	?
O=C(N/N=C/c1cccc(OCC(=O)N2CCCC2)c1)C(=O)Nc1ccccc1F
 : -10%	-4%
Cc1ccc(C(NC(=O)/C=C\c2ccc3c(c2)OCO3)C(=O)Nc2ccc3c(c2)OCO3)cc1 (centres undefined)
 : 12%	9%
Cc1ccc2c(c1)c(C)c(C)n2CC(O)CN1CCCCC1C (centres undefined)
 : i	-5%
COc1c(O)cc(O)c2c(=O)cc(-c3ccccc3)oc12
 : -9%	-11%
CC1=C(C(=O)NCc2ccccc2)C(c2ccccc2OCC(N)=O)NC(=O)N1 (centres undefined)
 : -9%	0%
O=C(c1cccc(S(=O)(=O)N2CCOCC2)c1)N(CCO)Cc1ccccc1
 : -14%	-6%
Cn1c(SC2C(=O)CC(C)(C)CC2=O)nnc1-c1ccco1
 : i	-10%
COc1ccc(CNC(=O)c2ccc(-c3c(C)noc3C)c3ccoc23)cc1OC
 : -9%	-9%
COC(=O)CNC(=O)c1cc(OC)cc(OC)c1
 : -17%	-3%
COc1ccc(-c2nc(CSCC(=O)N3CCN(c4cc(Cl)ccc4C)CC3)c(C)o2)cc1
 : ?	?
CCc1cc(C(c2ccncc2)N2CCN(C)CC2)c(NC(=O)c2ccccc2)s1 (centres undefined)
 : -23%	-9%

# In the list so far, six contain fluorine:
# Results follow in this order: Vaccinia mCherry	VACV Venus inh
O=C(NC1CCCCC1)C(c1ccc(F)cc1)N(C(=O)c1csnn1)C1CC1 (centres undefined)
 : -5%	-8%
COC(=O)c1ccc(NC(=O)C(=O)NCCc2sc(-c3cccc(F)c3)nc2C)cc1
 : -17%	-15%
Cn1c(=O)n(C)c2cc(CNCc3ccc(F)cc3)ccc21
 : -20%	-10%
CCN(C(=O)CN1CCN(c2cccc(C(F)(F)F)c2)CC1)c1c(N)n(Cc2ccccc2)c(=O)[nH]c1=O
 : i	-7%
COC(=O)C1=C(c2ccc(OC(F)(F)F)cc2)C[C@@H]2CC[C@H]1N2C(=O)NCCOc1ccccc1Cl
 : -19%	?
O=C(N/N=C/c1cccc(OCC(=O)N2CCCC2)c1)C(=O)Nc1ccccc1F
 : -10%	-4%

# The listing continues.
# Results follow in this order: Vaccinia mCherry	VACV Venus inh
CCNc1c2c3c(cccc3n(C)c1=O)C(=O)c1ccccc1-2
 : i	18%
Cc1ccc(-n2ncc3c(N4CCN(Cc5ccccc5)CC4)ncnc32)cc1Cl
 : -3%	-11%
CCOCC(=O)Nc1nc2ccc(S(C)(=O)=O)cc2s1
 : nt	-14%
COc1ccccc1CNC(=O)CSc1nc(N)c(C#N)c(-c2cccs2)c1C#N
 : ?	-19%
Fc1ccc(CN2CCN(c3ccc(Cl)cc3)CC2)cc1
 : i	-14%
COc1ccc(NS(=O)(=O)c2cnc[nH]2)cc1
 : -9%	-1%
COCCN1CC(CNC(=O)c2cc(COc3ccc(C)c(C)c3)on2)CC1=O (centres undefined)
 : -10%[7.34 µM]	-2%[7.34 µM]
O=C(CCNc1ccc(F)cc1)c1cccc([N+](=O)[O-])c1
 : -11%	-16%
Cc1ccc(S(=O)(=O)N2CCN(C(=O)c3cc(-c4cccs4)nn3-c3ccccc3)CC2)cc1
 : i	-14%
O=C1c2ccc(Cl)cc2S(=O)(=O)c2cccc(C(=O)N3CCN(c4ccc(Cl)cn4)CC3)c21
 : i	-11%
CCCCc1c(C)nc2ccc(Br)cc2c1SC(N)N
 : i	-11%
O=C(NCc1ccc(F)cc1)c1cc(C2CCCCN2S(=O)(=O)Cc2ccccc2)on1 (centres undefined)
 : -3%	-11%
Cc1noc(C)c1-c1nc(Nc2ccncc2)c2ccccc2n1
 : -12%	-13%
Cc1ccc(Cl)c(OCC(=O)OCC(=O)c2ccc[nH]2)c1
 : -14%	-2%
CN(C)C(=O)CCN1CCOCC1
 : nt	-5%

# The list continues:
structure | Vaccinia mCherry | VACV Venus inh
O=C(CSc1ncnc2c1nnn2-c1ccc(F)cc1)NCC1CCCO1 (centres undefined) | nt | -6%
CCOC(=O)C1=C(C)N(C[C@@H]2CC[C@@H](Cc3ccc(-c4ccccc4)cc3)O2)C(=O)NC1c1ccc(SCc2ccco2)c([N+](=O)[O-])c1 (some centres undefined) | i | -23%
COc1ccccc1NC(=O)CSc1ccc2nnc(-c3ccccn3)n2n1 | -17% | -4%
O=C(COC(=O)c1cccnc1Cl)Nc1ccc2c(c1)OCCO2 | i | -10%
COc1ccc(NC(=O)c2ccc3c(c2)C(=O)N(CC2CCCO2)C3=O)cc1 (centres undefined) | -6% | -10%
Cc1ccc(S(=O)(=O)Nc2nc(C)c(NC(=O)Nc3ccc(Cl)cc3Cl)s2)cc1 | -14% | -8%
COc1ccc(-c2c(C#Cc3ccsc3)c3ccccc3n2C)cc1 | ? | ?
COC(=O)CNC(=O)Nc1cc(C(=O)NCc2ccc(C)cc2)ccc1N1CCCC1 | -13% | -10%
CCCCCc1c(C)nc(NCc2ccccc2)[nH]c1=O | -15% | -14%
O=C(c1ccc2c(c1)N(Cc1ccccc1F)C(=O)c1ccccc1S2(=O)=O)N1CCN(c2ccccc2F)CC1 | 14% | 1%
COc1cccc(-n2ccn(CC(=O)Nc3ccccc3F)c(=O)c2=O)c1 | -13% | -12%
CN(C)c1ncnc2c1C(c1ccccc1)C(C)(C)O2 (centres undefined) | -1% | -6%
Cc1ccc(NC(=O)CSc2nnc(-c3cnccn3)n2Cc2ccco2)cc1C | -18% | -20%
Cc1cc(OCC(=O)NC(Cc2ccc(Cl)cc2)C(=O)O)c2c(C)c(C)c(=O)oc2c1 (centres undefined) | -3% | -7%
Cc1cc(C)cc(NC(=O)c2cc(C)nc3c2c(C)nn3-c2ccccc2)c1 | 1% | 12%
O=C(CSc1ncnc2ccccc12)N1CCCC1 | -1% | ?
O=C(Nc1ccc(F)cc1)C(Sc1nc2ccccc2[nH]1)c1ccccc1 (centres undefined) | ? | ?
CCCc1nnc(NC(=O)c2c(O)c3cccc4c3n(c2=O)CCC4)s1 | -23% | -21%
O=C(NCc1ccco1)C(c1ccncc1)N(C(=O)Cn1nnc2ccccc21)c1ccccc1 (centres undefined) | 9% | -8%
O=C(Cc1ccccc1)N(Cc1cccnc1)c1nc2c(Cl)cccc2s1 | -20% | -16%
CCCCc1ccc(NS(=O)(=O)c2cccc(C(=O)N3CCNC(=O)C3)c2)cc1 | -27% | -15%
CCOCCCn1c(SCC(=O)Nc2ccccc2OC)nc2c(oc3ccccc32)c1=O | -8% | 8%
CSc1nc2n(n1)C(c1cccs1)C1=C(CCCC1=O)N2 (centres undefined) | 8% | -4%
CC(=NCC1CCCO1)c1c(O)[nH]c(=O)[nH]c1=O (centres undefined) | nt | -15%
CN(C(=O)c1cccc(Nc2ccc(-c3ccc4c(c3)OCCO4)nn2)c1)C1CCCCC1 | nt | ?
CCOC(=O)C1CCCN(C(=O)CSc2ccccc2)C1 (centres undefined) | -12% | -8%
COc1ccc([C@@H]2CC=C(C(=O)O)[C@H](c3ccccc3)N2S(=O)(=O)c2ccc(C)cc2)cc1OC | i | -10%
Cc1ccccc1C(=O)N1CCC2CC1c1cc(-c3ccc(F)cc3)ccc12 (centres undefined) | -3% | -26%
Cc1cc(C(=O)N2CCC2(C)C(=O)Nc2cc(C(C)(C)C)nn2C)nn1C (centres undefined) | i | 0%
O=S(=O)(c1cnccc1N1CCN(CCO)CC1)N1CCCC1 | i | -16%
Cc1onc(-c2ccccc2Cl)c1C(=O)N1CCOC12CCN(c1cccc(F)n1)CC2 | -3% | -11%
CCN(CC)S(=O)(=O)c1ccc(N2CCOCC2)c(NC(=O)CC2OC(=O)c3ccccc32)c1 (centres undefined) | i | -15%
Cc1ccc(NC(=O)C2CCN(S(=O)(=O)c3c(C)noc3/C=C/c3ccco3)CC2)cc1C | -2% | -3%
COc1cccc(C2=Cc3ccc(F)cc3C(CC(C)=O)N2c2ccc(C#CC3(O)CCCCC3)cc2)c1 (centres undefined) | -8% | -7%
Cc1ccnc(NC2(C(F)(F)F)N=C(c3ccccc3)NC2=O)c1 (centres undefined) | i | -5%
CC(C)(C(=O)N1CCC1(C)C(=O)NS(=O)(=O)c1cccc(C#N)c1)c1ccccc1 (centres undefined) | 20% | -1%
CCC(C)(C)NC(=O)C(c1ccc(F)cc1)N(CCOC)C(=O)CCC(=O)Nc1nccs1 (centres undefined) | -7% | -4%
O=C(C[C@H]1C/C=C\CC[C@H](Cc2ccc(F)cc2)C(=O)O[C@H](c2ccccc2)CNC1=O)N[C@H](CO)Cc1ccccc1 | ? | ?
CCOc1ccc2c(c1)-c1c(ssc1=S)C(C)(C)N2C | ? | -25%
C/C=C(\C)CN1CCc2cc(OC)c(OC)cc2C1 | -8% | -6%
COc1ccccc1CNC(=O)C1(C)CCCCN1C (centres undefined) | i | -7%
Cc1ccc(SCCC(=O)N(C)C)cc1 | -12% | -7%
COc1ccc(C(=O)OCC(=O)NCc2ccc3c(c2)OCO3)cc1[N+](=O)[O-] | i | -6%
O=S1(=O)C[C@H](N2CCCC2)[C@@H](COCc2ccccc2)N1 | -2% | -3%
Cc1cc(NC(c2ccc(Cl)cc2)c2ccc3cccnc3c2O)no1 (centres undefined) | nt | ?
O=C(Cn1ncc2c3ccccc3n(Cc3ccccc3)c2c1=O)NCc1ccccc1 | -6% | 6%
O=C1N=C(O)CN1/N=C/c1ccc(-c2ccc([N+](=O)[O-])cc2)o1 | -12% | -10%
Cc1ccc2nc(-c3ccc(C)o3)c(Nc3ccc4c(c3)OCCO4)n2c1 | i | -15%
COc1ccc(CNC(=O)C(c2ccco2)N(Cc2ccccc2)C(=O)Cc2cccs2)cc1 (centres undefined) | ? | -26%
N#Cc1c[nH]n2c(NC3CCCCC3)c(-c3cccc(Cl)c3)nc12 | 3% | -13%
Cc1ccc(C)c(SCc2noc(C(=O)NCC3CCCO3)c2C(=O)O)c1 (centres undefined) | i | -8%
OC[C@@H]1CN(Cc2cccs2)C[C@H](n2cnc3c(N4CCN(c5ccccc5)CC4)ncnc32)O1 | i | -3%
Cc1ccc(NC(=O)COC(=O)[C@H](C)NC(=O)c2ccccc2)cc1S(=O)(=O)N1CCOCC1 | -2%[7.34 µM] | -1%[7.34 µM]
O=C(NCc1ccc(C(F)(F)F)cc1)C1CC(c2cccc(F)c2)=NO1 (centres undefined) | i | -5%
COc1ccc(CNC(=O)CCS(=O)(=O)Cc2cccc(Cl)c2)c(OC)c1 | 0% | -6%
COc1ccc(NC(=O)COc2coc(CN3CCc4ccccc43)cc2=O)cc1 | -12% | -5%
COC(=O)C1=C(C)N(C)C(C)=C(C(=O)OC)C1c1ccc(C(=O)OC)cc1 | nt | ?

# The order is random. About 0.88% of those tested had a hit in this group.
